# High-throughput results as filed in PubChem.
# VDR inhibitor: inhibitors of human vitamin D receptor | hit rate 0.93% among 400,000 | VDR-SRC2-3 peptide fluorescence polarization, 2 h | Potency, µM, inactives show max response, negative = inhibition, most hits filed as inhibitors | P11473; active means well fitted inhibition curve with a large enough effect; inconclusive means small, poorly fitted or top-dose-only effect, or another doubt; inactive means no such curve, though single readings can be large or run the other way; further: series mostly up to about 120 µM
# Target sequence (P11473 whole entry, looked up): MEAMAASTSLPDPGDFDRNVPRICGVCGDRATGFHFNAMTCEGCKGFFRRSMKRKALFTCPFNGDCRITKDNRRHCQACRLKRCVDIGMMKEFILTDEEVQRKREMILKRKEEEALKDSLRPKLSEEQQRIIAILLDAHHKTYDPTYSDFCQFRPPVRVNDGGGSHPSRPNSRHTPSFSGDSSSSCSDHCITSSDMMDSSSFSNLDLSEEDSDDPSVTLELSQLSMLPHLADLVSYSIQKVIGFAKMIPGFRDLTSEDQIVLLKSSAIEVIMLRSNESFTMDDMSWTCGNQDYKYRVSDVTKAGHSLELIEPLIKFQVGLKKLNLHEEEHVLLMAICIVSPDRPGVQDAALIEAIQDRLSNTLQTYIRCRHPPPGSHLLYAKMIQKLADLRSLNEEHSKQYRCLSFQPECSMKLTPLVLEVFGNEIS
#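 Two reagent solutions held at 4 deg C in the dark were dispensed, compounds pinned at 23 nl, and the mixture incubated 2 h at room temperature. Read-out: fluorescence polarization of VDR–SRC2-3 peptide binding.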
# The depositor's hits bear a star; ? = inconclusive; & = joins results of further samples. On the % scale 0 is the no-effect control and ±100 the full control effect; potency means the concentration at half of the fitted maximal effect.
# Preview (four entries):
SMILES,VDR inhibitor
Cn1cc(CNCc2ccccc2OCC(O)CN2CCc3ccccc3C2)cn1 (configuration not stated),2%
COc1cccc(CSc2nnc(-c3ccco3)n2C)c1,5%
Cc1ccc(S(=O)(=O)N2CCC(C(=O)Nc3cc(C)ccc3C)CC2)cc1,-1%
Cc1cc(N2CCN(C)CC2)n2nc(-c3ccc(Cl)cc3)nc2n1,-4%

# The list itself, previewed entries included:
SMILES,VDR inhibitor
Cn1cc(CNCc2ccccc2OCC(O)CN2CCc3ccccc3C2)cn1 (configuration not stated),2%
COc1cccc(CSc2nnc(-c3ccco3)n2C)c1,5%
Cc1ccc(S(=O)(=O)N2CCC(C(=O)Nc3cc(C)ccc3C)CC2)cc1,-1%
Cc1cc(N2CCN(C)CC2)n2nc(-c3ccc(Cl)cc3)nc2n1,-4%
Cc1nn(C)cc1CNC(=O)c1cccc(F)c1,-12%
CCN(CC)C1Oc2cc3c(cc2C(c2cc(OC)c(O)c(OC)c2)C1C)OCO3 (configuration not stated),-10%
CCOC(=O)c1c(S(=O)(=O)Nc2ccc(CN3CCC(C)CC3)cc2)c(C)n(C)c1C,12%
COC(=O)c1nc(-c2ccccc2)oc1N1CCOCC1,-11%
CC(=O)c1ccc(NC(=O)c2ccc(S(=O)(=O)N3CCCC3)cc2)cc1,-9%
NNC(=O)c1sccc1OCc1ccc(Cl)cc1Cl,?
CCOC(=O)C1=C(C)NC(=O)NC1c1ccc(F)cc1 (configuration not stated),2%
O=C(N/N=C/c1ccc(F)cc1)c1cc[n+]([O-])cc1,-10%
Cc1c[n+]([O-])n(-c2ccc(C(=O)O)cc2)n1,7%
CCCCC[C@H](O)/C=C/[C@H]1OC(O)C[C@H](O)[C@@H]1C/C=C\CCCC(=O)O (some centres not stated),0%
COc1cccc2sc(N(CCCN(C)C)C(=O)c3ccc(S(=O)(=O)N4CCc5ccccc5C4)cc3)nc12,-6%
CC(C)N(C(=O)Cn1cc(S(=O)(=O)CC(=O)NCc2ccc(F)cc2)c2ccccc21)C(C)C,-10%
O=C(CCN1CCN(CC(=O)Nc2ccccc2Cl)CC1)Nc1ccccc1F,12%
CCCc1nc2nc(C)c(NS(=O)(=O)c3ccc(F)cc3)c(=O)n2[nH]1,7%&8%
OC(c1ccc(Cl)cc1)C(CN1CCOCC1)c1ccccc1 (configuration not stated),-8%
O=C(COc1ccc(S(=O)(=O)N2CCOCC2)cc1)N1CCN(c2ccccc2)CC1,-11%

# The list goes on, overlapping the part above by two compounds.
SMILES,VDR inhibitor
OC(c1ccc(Cl)cc1)C(CN1CCOCC1)c1ccccc1 (configuration not stated),-8%
O=C(COc1ccc(S(=O)(=O)N2CCOCC2)cc1)N1CCN(c2ccccc2)CC1,-11%
O=C(CN(C(=O)c1csnn1)c1ccccc1)NCCc1ccccc1,-9%
O=C(c1ccc(S(=O)(=O)NCC2CCCO2)cc1)N1CCN(c2ccccc2F)CC1 (configuration not stated),-17%
CN(Cc1cc2ccccc2[nH]c1=O)S(=O)(=O)c1ccccc1,?
CCOC(=O)c1cc2c(=O)n3ccccc3nc2n(CC(C)C)c1=NC(=O)C(C)Oc1ccccc1 (configuration not stated),10%
COc1ccc(S(=O)(=O)N(CC(=O)NN=C2CCN(C)CC2)c2cc(Cl)ccc2OC)cc1OC,-1%
Cc1ccc(-n2ncc3c(N(CCO)Cc4ccccc4)ncnc32)cc1,13%
CCOC(=O)c1[nH]c(C)c(C(=O)Nc2ccc3c(c2)CCC3)c1C,18%
O=C(O)c1cnn(-c2ccccc2)c1C(F)(F)F,15%
CCCCCN(C(=O)CCC(=O)OCC(=O)Nc1cccc(CC)c1)c1c(N)n(CCCC)c(=O)[nH]c1=O,?
Cc1ccc(S(=O)(=O)N2CCN(CC(=O)NC(=O)NCc3ccccc3)CC2)cc1C,-2%
O=C(C1CCCCC1)N1CCN(c2ncccn2)CC1,-4%
O=C(Nc1cccc(Cl)c1N1CCCC1)c1cccc(-c2cc3ccccc3oc2=O)c1,16%
O=C(CN1CCN(c2ccc(F)cc2)CC1)Nc1ccccc1[N+](=O)[O-],?
Cc1ccc(NC(=O)C2CCCN(c3nnc(C)c4c(C)n(-c5ccccc5)nc34)C2)cc1Cl (configuration not stated),1%
CCOc1ccc(CC(=O)Nc2c(C(=O)c3ccccc3)oc3ccc(Cl)cc23)cc1OCC,-11%
COC(=O)C1C(O)CC[C@@H]2CN3CCc4c([nH]c5ccccc45)C3C[C@@H]12 (some centres not stated),17%&-2%
O=C(COc1ccc(Cl)cc1)NCc1nnc(SCC(=O)Nc2ccccc2)o1,8%
Cc1nc2ccc(S(=O)(=O)N(C)CC(=O)Nc3cccc(C(F)(F)F)c3)cc2s1,-3%
CN(C)S(=O)(=O)c1ccc(Cl)c(NC(=O)COC(=O)c2ccc3c(c2)NC(=O)CS3)c1,-22%
CCCCOC(=O)c1ccc(NC(=O)C(=O)CC(=O)c2ccc(OC)cc2)cc1,17%

# Rewritten with each value named: four of the compounds above.
Cc1ccc(-n2ncc3c(N(CCO)Cc4ccccc4)ncnc32)cc1
- VDR inhibitor: 13%

CCOC(=O)c1[nH]c(C)c(C(=O)Nc2ccc3c(c2)CCC3)c1C
- VDR inhibitor: 18%

O=C(O)c1cnn(-c2ccccc2)c1C(F)(F)F
- VDR inhibitor: 15%

CCCCCN(C(=O)CCC(=O)OCC(=O)Nc1cccc(CC)c1)c1c(N)n(CCCC)c(=O)[nH]c1=O
- VDR inhibitor: ?

# (list continues)
SMILES,VDR inhibitor
COc1cccc(NC(=O)c2sc3nc(N4CCOCC4)c4c(c3c2N)CCCC4)c1,12%
COC(=O)c1nc(NC(=O)C(C)(C)C)n[nH]1,9%
COc1ccc(Cl)cc1NC(=O)C(C)NC(c1ccccc1)c1ccccc1 (configuration not stated),-5%
COc1ccc(N(CC(=O)NCc2cccs2)S(=O)(=O)c2ccc(F)cc2)cc1,-5%
Cc1ccc(-c2cn3nc(N4CCCC(C(=O)Nc5ccc(F)cc5)C4)sc3n2)cc1 (configuration not stated),15%
COc1cc2c(cc1OC)CN(CC(=O)Nc1ccc(S(=O)(=O)N3CCCC3)cc1)CC2,0%
COc1cccc2cc(C(=O)Nc3ccc(S(=O)(=O)NCC4CCCO4)cc3)c(=O)oc12 (configuration not stated),?
Cc1ccc(-c2nnc(Nc3ccc(CC(N)=O)cc3)c3ccccc23)cc1S(=O)(=O)NCC1CCCO1 (configuration not stated),16%
CCOc1ccccc1/C=C(/NC(=O)c1ccccc1)C(=O)NCC(=O)O,2%
CC12CCC(C(=O)N/N=C/c3ccc(O)cc3O)(OC1=O)C2(C)C (configuration not stated),9%
Cc1ccc(CN2[C@@H](CC3CCCCC3)COCCS2(=O)=O)cc1,-8%
Cc1nc(N2CCN(C(=O)c3ccco3)CC2)nc2c1C(=O)CC(C)C2 (configuration not stated),-4%
CN=c1sc2ccccc2n1CC(O)COc1ccccc1 (configuration not stated),3%
CSCCC1NC(=O)NC1=O (configuration not stated),5%
CCc1ccc(-c2csc(NC(=O)C3CC(=O)N(c4ccc5c(c4)OCCO5)C3)n2)cc1 (configuration not stated),-26%
Cc1oc(-c2ccccc2F)nc1CS(=O)(=O)CC(=O)N1CCN(c2ccccc2)CC1,-1%&-5%
Cc1ccc(-c2noc(-c3ccccc3Br)n2)cc1,8%
O=C(NCc1ccccc1Br)c1ccc2c(c1)OCCO2,13%
CNC(=O)C1CCN(S(=O)(=O)c2c(C)noc2/C=C/c2cccc(OC)c2)CC1,6%
C#CCNC(=O)C1=C[C@H](c2coc3ccccc3c2=O)C[C@H](OCCCCO)O1,-15%
CCn1cc(C(=O)N2CCN(c3ccc(C)cc3)C(C)C2)c(=O)c2cc(S(=O)(=O)N3CCCC3)ccc21 (configuration not stated),-15%
Cc1ccc(/C=C/C(=O)O)cc1S(=O)(=O)Nc1ccccc1C(=O)O,-1%
CN(C)CCOC(=O)c1ccc(COc2ccccc2Br)o1,13%
N#Cc1nc(-c2ccc(OCc3ccc(Cl)cc3)cc2)oc1NCc1cccnc1,0%
Cc1nc(-c2ccccn2)nc(SCC(=O)c2ccccc2)c1Cl,-12%
Cc1ccccc1OCC(=O)NC(Cc1c[nH]c2ccccc12)C(=O)O (configuration not stated),-1%
Cc1cc(C)c(S(=O)(=O)n2c([N+](=O)[O-])cnc2C)c(C)c1,-6%
Cc1c(C=O)c2ccccn2c1C(=O)c1cccc([N+](=O)[O-])c1,-4%
O=C(O)c1nc(-c2ccccc2)n(-c2cccc(C(F)(F)F)c2)n1,-9%
CCn1cnc2cc(NC(=O)c3ccc(C)cc3)ccc21,-14%
O=C(Nc1nnc(-c2ccc(F)cc2)s1)C1CCN(S(=O)(=O)c2ccc(Cl)cc2)CC1,8%
CCN(CC)C(=S)Oc1c(Cl)cccc1Cl,-19%
CCCC(=O)Nc1nnc(CC(=O)OCC)s1,9%
O=C(CNC(=O)c1ccccc1Br)N/N=C/c1ccc(O)cc1,-5%
C=CCn1c(COc2cccc(C)c2)nnc1SCn1nnc2ccccc2c1=O,3%
CC(O)CNCCCOc1cccc(Oc2ccccc2)c1 (configuration not stated),-15%
CCOC(=O)C1CCN(C(=O)C(CCSC)NC(=O)COc2ccccc2)CC1 (configuration not stated),-7%
CCOc1ccc(NC(=O)CN2C(=O)CCSc3ccc(S(=O)(=O)N4CCCC4)cc32)cc1,27%&20%
CCN(CC)CCN(C(=O)C1CCCCC1)c1nc2cc3c(cc2s1)OCO3,20%
O=C(NCc1nc2ccccc2[nH]1)c1ccc(S(=O)(=O)N2CCOCC2)cc1,10%

# Part of the list above, field by field.
compound: Cc1cc(C)c(S(=O)(=O)n2c([N+](=O)[O-])cnc2C)c(C)c1
  VDR inhibitor = -6%

compound: Cc1c(C=O)c2ccccn2c1C(=O)c1cccc([N+](=O)[O-])c1
  VDR inhibitor = -4%

compound: O=C(O)c1nc(-c2ccccc2)n(-c2cccc(C(F)(F)F)c2)n1
  VDR inhibitor = -9%

compound: CCn1cnc2cc(NC(=O)c3ccc(C)cc3)ccc21
  VDR inhibitor = -14%

# (further entries)
SMILES,VDR inhibitor
CCC(=O)c1ccc(OCC(=O)OCC(=O)c2cc(C)n(C)c2C)cc1,-4%
O=C(Nc1ccccc1Cl)c1sccc1-c1ccccc1,-9%
CC1CCn2c(nc3cc(C(=O)NCc4ccccc4)ccc32)C1 (configuration not stated),4%
Cc1nn(C2CCS(=O)(=O)C2)c(C)c1CN(C)C(=O)c1ccc(Cl)cc1 (configuration not stated),-2%
Cc1ccc(OCC(=O)N(Cc2cccc(F)c2)C2CCS(=O)(=O)C2)cc1 (configuration not stated),12%
Cc1cc(C)n(C(=O)COc2c(C)cccc2C)n1,4%
Cc1ccccc1Cn1cc(NC(=O)CSc2nc3c(c(C(F)(F)F)n2)CCc2ccccc2-3)cn1,6%
N#Cc1cccc(NC(=O)CCc2ccc(S(=O)(=O)N3CCOCC3)cc2)c1,-14%
CC(C)c1nnc(SCC(=O)N2CCN(C(=O)c3ccco3)CC2)n1N,-4%
CCOc1ccccc1NC(=O)Cn1nnc2sc3c(c2c1=O)CCC(C(C)(C)C)C3 (configuration not stated),5%
CC12CCC(=O)N1C(C(=O)N1CCN(S(=O)(=O)c3ccc(Br)cc3Cl)CC1)CS2 (configuration not stated),15%
COCCNc1ncnc2c1nc1n2CCCC1,-8%
COc1ccccc1NC(=O)C(Cc1ccccc1)NS(=O)(=O)c1cccc2nsnc12 (configuration not stated),18%
CC(C)Cc1nnc(NC(=O)CCC(=O)NC2CCCC2)s1,6%
CCN(c1ccc(Cl)cc1)S(=O)(=O)c1nnc(NC(=O)C2CCCCC2)s1,3%
O=C(OCC(=O)N1CCN(C(=O)c2ccco2)CC1)c1ccccc1,-9%
Cc1ccc2cc(C#N)c(NCCNC(=S)NCCCN3CCOCC3)nc2c1,-16%
CCOc1ccccc1CNC(=O)CCc1cn(CC)c2ccccc12,-7%
O=C(CCNc1cccc(Cl)c1)c1cccs1,1%
COc1ccc(NC(=O)C(CC(=O)O)Cc2ccc(Br)cc2)cc1 (configuration not stated),-6%
COc1ccc(NC(=O)NNC(=O)c2ccc3ccccc3c2)cc1OC,14%
CCCCCOC(=O)C1=C(C)Nc2nnnn2C1c1ccccc1Cl (configuration not stated),11%
Cc1ccc(NC(=O)CSC2=C(C#N)C(c3ccco3)C3=C(CCCC3=O)N2)cc1 (configuration not stated),-16%
COC(=O)[C@]1(C)N[C@H](c2ccc(-c3ccc(Cl)c(Cl)c3)c(OC)c2)[C@@H]2C(=O)N(C)C(=O)[C@@H]21,-14%
O=S(=O)(Nc1cccc(F)c1)c1cccc2nsnc12,-19%
Nc1c(-c2ccc(Cl)cc2)cnn1-c1cccc(C(F)(F)F)c1,-2%
O=C(O)c1ccc(CNc2ccccc2C(=O)O)cc1,10%
CCN(c1ccc(Cl)cc1)S(=O)(=O)c1nnc(NC(=O)c2ccco2)s1,9%
O=C(Nc1cccc(F)c1)c1cc(-c2ccco2)nc2ccccc12,-15%
CN(Cc1nc(-c2ccncc2)no1)S(=O)(=O)c1ccc(Cl)cc1,-16%
COc1cccc(-c2c(C(=O)N/N=C(\C)c3ccc(Cl)s3)nnn2-c2nonc2N)c1,-5%
O=C(NNS(=O)(=O)c1ccccc1)Nc1ccc(F)cc1,-27%
C/C(=N/NC(=O)CN1CCN(Cc2ccccc2Cl)CC1)c1ccco1,10%
Cc1ccc(F)c(C2C3C=CCCC3(C)C(=O)N2Cc2ccccc2)c1 (configuration not stated),-15%
CN1C2C(Br)CCCCN2c2ccc(F)cc2S1(=O)=O (configuration not stated),-1%
CNCCCOc1cccc(OC(C)C)c1,5%

# Not all compounds are listed, so the mix of outcomes need not match the whole.
